# Compound activity (PubChem)
# hNpr1 antagonist: human Npr1 receptor antagonism; P16066; HEK293 hNpr1 GloSensor cGMP, ANP-stimulated luminescence; Potency, µM (titrated, usually from 46.3 µM), for inactives: at the top dose activity change, negative = inhibition, hits mostly inhibitors; 76,000 tested, 1.6% active; active = well fitted inhibition curve with a large enough effect; inconclusive = small, poorly fitted or top-dose-only effect; inactive = no such curve, though single readings can be large or run the other way;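 further: nearly all actives have a fitted effect of over 60% in size; nearly all hits also lower the signal before the agonist is added; a reference antagonist and vehicle were the controls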
# Target sequence (P16066 whole entry, looked up): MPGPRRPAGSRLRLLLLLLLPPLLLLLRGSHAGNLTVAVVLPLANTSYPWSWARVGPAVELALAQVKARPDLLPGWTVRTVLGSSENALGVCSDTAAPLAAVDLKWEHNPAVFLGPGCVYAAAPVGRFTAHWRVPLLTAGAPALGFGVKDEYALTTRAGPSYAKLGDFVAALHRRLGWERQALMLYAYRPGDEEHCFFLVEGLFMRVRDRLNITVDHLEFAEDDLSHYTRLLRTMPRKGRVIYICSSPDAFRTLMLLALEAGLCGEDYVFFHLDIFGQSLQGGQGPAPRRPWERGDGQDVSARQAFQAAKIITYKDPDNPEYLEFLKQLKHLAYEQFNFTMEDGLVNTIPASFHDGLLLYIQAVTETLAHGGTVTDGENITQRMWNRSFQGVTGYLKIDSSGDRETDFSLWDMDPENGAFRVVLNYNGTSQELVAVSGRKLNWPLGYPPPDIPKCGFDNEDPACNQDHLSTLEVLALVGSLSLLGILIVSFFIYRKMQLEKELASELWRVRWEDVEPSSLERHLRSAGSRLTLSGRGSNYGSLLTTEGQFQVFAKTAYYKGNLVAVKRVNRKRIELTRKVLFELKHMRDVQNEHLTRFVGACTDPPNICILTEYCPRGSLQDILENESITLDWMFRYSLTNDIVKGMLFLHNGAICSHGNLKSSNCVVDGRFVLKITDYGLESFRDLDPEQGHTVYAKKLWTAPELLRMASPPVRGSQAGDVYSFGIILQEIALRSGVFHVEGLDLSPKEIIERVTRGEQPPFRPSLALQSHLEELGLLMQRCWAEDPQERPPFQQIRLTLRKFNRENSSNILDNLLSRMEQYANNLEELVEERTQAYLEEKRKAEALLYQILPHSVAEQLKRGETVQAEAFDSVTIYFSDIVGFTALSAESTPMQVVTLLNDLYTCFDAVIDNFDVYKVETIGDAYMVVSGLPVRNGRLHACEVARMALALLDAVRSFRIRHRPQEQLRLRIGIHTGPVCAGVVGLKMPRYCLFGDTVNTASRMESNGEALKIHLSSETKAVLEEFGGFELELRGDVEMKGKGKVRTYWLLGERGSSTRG
#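 HEK293 cells stably expressing human Npr1 and cGMP GloSensor pGS-40F, loaded 2 h with 2% GloSensor reagent, given compound 30 min at room temperature. Luminescence read before and 20 min after 0.1 nM hNppA.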
# Starred values were filed as active, the others as inactive; ? = inconclusive; [ ] = another dose, or the depositor's remark. On the % scale 0 is the no-effect control and ±100 the full control effect; potency means the concentration at half of the fitted maximal effect. This is a subset (hit frequency here may not be typical).
Molecule	hNpr1 antagonist
Cc1cc(C)c2c(C(=O)N(C)Cc3nc(C)no3)cc(C)nc2c1	5%
COc1ccc(C(C)NC(=O)c2noc(-c3ccc(F)cc3)n2)cc1OC (stereo unspecified)	-22%
CCC(CC)c1nc(CN2C(=O)NC(c3ccc(OC)cc3)C3=C2COC3=O)no1 (stereo unspecified)	0%
COc1cccc(CN2CCOC3CCN(CCCc4ccccc4)CC3C2=O)c1 (stereo unspecified)	-1%[70.6 µM]
CN1CCC(NC(=O)c2ccc(OC3CCNCC3)nc2)CC1	-1%
CC(C)C(=O)N1CCC2(CC1)CC(N(Cc1ccccc1)C1CC1)CCO2 (stereo unspecified)	5%
COc1ccc(-c2noc([C@@H]3CCCN3C(=O)c3ccc(N(C)C)cc3)n2)cc1OC	-5%
Cn1ccc(NC(=O)[C@@H]2C[C@H](c3ccc(F)cc3)N(Cc3ccccc3Cl)C2)n1	?
N#Cc1ccccc1-c1cc2c(ccn2Cc2ccncc2)c(N2CCOCC2)n1	-11%[70.6 µM]
CCCn1cc(-c2ccnc(NCc3cccc(C)c3)n2)c(C)n1	8%
Cc1ccsc1C(=O)N1CCCC(c2nnnn2C)C1 (stereo unspecified)	3%
CCC1(N2CCN(C(=O)c3ccc(C(F)(F)F)cc3)CC2)CCN(S(C)(=O)=O)C1 (stereo unspecified)	4%
Cc1ccc(C)c(NC(=O)Cn2c(N3CCC(C)CC3)nc(C)cc2=O)c1	-17%
COCc1cc(=O)n(CC(=O)Nc2ccc(Br)cc2)c(N2CCOCC2)n1	-17%
O=C1Nc2ccc(-c3ccccc3F)cc2C(=O)N2C[C@@H](NS(=O)(=O)c3ccc(F)cc3)C[C@@H]12	0%
O=C(C1CCOCC1)N1CCC(O)(c2csc(CN3CCc4ccccc4C3)n2)CC1	6%
O=C(c1ccc(F)c(Cl)c1)N1C[C@@H](CO)[C@H](c2ccccn2)C1	2%
Cc1cc(C)n2ncc(C(=O)N3CCC(=O)N(CC4CC4)C(C(C)C)C3)c2n1 (stereo unspecified)	5%
CC(C)CCN1CCC(C2CCNC2)CC1 (stereo unspecified)	4%
COCCNC(=O)c1ccc(CC2CCN(C(=O)Cc3ccccc3)CC2)cc1	-2%
N#Cc1cccc(C(=O)N2C[C@@H](Oc3ccccc3)C[C@H]2C(=O)N2CCOCC2)c1	-2%
COc1ccc(CN2CC(COc3ccccc3)C3(C2)CN(c2ccccc2)C3)cc1O (stereo unspecified)	-18%[70.6 µM]
O=C(C1CCN(C(=O)N2CC3CC(C2)[C@H]2CCCC(=O)N2C3)CC1)N1CCN(C2CCCCC2)CC1 (stereo partly specified)	0%
CCOc1ccccc1C(=O)N1[C@@H]2CC[C@H]1CC(NC(=O)c1ccc(F)cc1)C2 (stereo partly specified)	-2%

# Overlap with the part before: six entries; new compounds follow.
Molecule	hNpr1 antagonist
CC(C)CCN1CCC(C2CCNC2)CC1 (stereo unspecified)	4%
COCCNC(=O)c1ccc(CC2CCN(C(=O)Cc3ccccc3)CC2)cc1	-2%
N#Cc1cccc(C(=O)N2C[C@@H](Oc3ccccc3)C[C@H]2C(=O)N2CCOCC2)c1	-2%
COc1ccc(CN2CC(COc3ccccc3)C3(C2)CN(c2ccccc2)C3)cc1O (stereo unspecified)	-18%[70.6 µM]
O=C(C1CCN(C(=O)N2CC3CC(C2)[C@H]2CCCC(=O)N2C3)CC1)N1CCN(C2CCCCC2)CC1 (stereo partly specified)	0%
CCOc1ccccc1C(=O)N1[C@@H]2CC[C@H]1CC(NC(=O)c1ccc(F)cc1)C2 (stereo partly specified)	-2%
COc1cc(C)cc(OC)c1C(C(=O)O)N1CCN(CC2CC2)CC1 (stereo unspecified)	-7%
COc1ccc([S+](=O)([O-])N2CCC3(CC2)OCCN(CC2CC2)C3=O)cc1	?
CN1CCN(C(=O)[C@@H]2CCC[C@@H](NCc3cccc4c3OCO4)CN(C)C(=O)C2)CC1	1%[70.6 µM]
COc1ccc(C(=O)N2C[C@@H](F)[C@@H](OCc3nc4ccccc4[nH]3)C2)cc1	3%[70.6 µM]
Cc1nn(C)c(C)c1CCC(=O)N1C[C@@H](Oc2ccccc2)C[C@H]1C(=O)N1CCCC1	-1%
O=C(Nc1ccc(F)cc1F)c1ccc2c(c1)n(Cc1cccc(F)c1)c(=O)c1ccnn12	0%
Clc1ccc2oc([C@H]3CCN(Cc4cccs4)C3)nc2c1	-25%[70.6 µM]
Cn1cnnc1CC1CCN(c2nnnn2-c2ccccc2)CC1	4%
O=C(Nc1ccc(F)cc1)N[C@H]1[C@H](O)[C@@H](N2CCCCC2)[C@@H]2OC[C@H]1O2	3%[70.6 µM]
O=C(NCc1c[nH]c2ncccc12)c1ccc2c(c1)OCO2	5%[70.6 µM]
CC(=O)N1CCC(NC[C@H]2O[C@@H]3C[C@@H](CC(=O)NC(C)C)O[C@@H]3[C@@H]2O)CC1	5%[70.6 µM]
Cc1ccc(-c2nnc(C3CN(C(=O)CCc4ccccc4)CC34CCOCC4)o2)cc1 (stereo unspecified)	-1%
COCC(=O)N1CCC(c2nc(C3CCOCC3)n[nH]2)CC1	12%
CC(=O)Nc1ccc([C@H]2OCC(=O)N(Cc3ccc(F)cc3)[C@@H]2CO)cc1	1%[70.6 µM]
CCCc1nc(NCC(c2ccccn2)N2CCOCC2)c2cnn(C)c2n1 (stereo unspecified)	2%
CC[C@H]1CN(S(=O)(=O)c2ccccc2)CC[C@H]1CC(=O)N1CCC(C(=O)OC)CC1	3%
COc1ccc(C(=O)NCc2nnc3c(-c4nc(C5CC5)no4)cccn23)c(C)c1	-4%
C[S+](=O)([O-])N1CC2(Cc3ccccc31)CN(C(=O)c1ccccc1)C2	-11%
Cc1noc([C@@H]2CN(C(=O)c3ccoc3C)C[C@H]2CO)n1	3%
COC(=O)c1ccc2nc(CO[C@H]3CN(Cc4ncccc4C)C[C@H]3F)[nH]c2c1	1%[70.6 µM]
O=C(CN1C(=O)COc2ccc(C(=O)COc3ccccc3F)cc21)NC1CCCCC1	-1%
Cc1ccc(N2CCC(NC(=O)c3ccc4[nH]ccc4c3)C2=O)cc1C (stereo unspecified)	-19%
Cc1cncc(C(=O)N2CCOc3c(O)cc(-c4nc5ccccc5s4)cc3C2)c1	-6%
C=CCNC(=O)Cc1ccc(N(Cc2ccc(C)cc2)C(=O)c2ccco2)cc1	-17%
CCCN(CC1CCOC1)S(=O)(=O)c1ccc(Cl)cc1 (stereo unspecified)	-11%
CC(=O)Nc1ccc(OCC(=O)N(C)Cc2ccccc2)nc1	0%
O=C(CN1CCN(c2ncccn2)CC1)N1CCC2(CCCNC2=O)C1 (stereo unspecified)	-2%
CCCCNC(=O)c1cc2n(n1)CC(c1ccc3c(c1)OCO3)OC2 (stereo unspecified)	3%
C#CCNC(=O)C[C@@H]1C[C@@H](C(C)C)[C@H](CNS(=O)(=O)Cc2ccccc2)C=C1C	0%[70.6 µM]
CCOCc1nc(C2CCCN(C(=O)COC)C2)no1 (stereo unspecified)	0%
Cc1ccc(CN2CCN(C(=O)CCC3CC3)C(C)C2=O)cc1 (stereo unspecified)	1%
CN(C)c1ccc(C(=O)N2CCN(c3cc(-c4ccc(Cl)cc4)[nH]n3)CC2)cc1	13µM*
O=C(NCC1CC1)c1cccc(OC2CN(C3CCCCCC3)C2)c1	1%
O=C(CCCc1ccccc1)NC1CCN(C(=O)N2CC3CC(C2)[C@H]2CCCC(=O)N2C3)CC1 (stereo partly specified)	1%
Cc1cc(C)cc(NC(=S)N[C@H]2CO[C@H]3[C@@H]2OC[C@H]3O)c1	4%[70.6 µM]
O=C1CCN(S(=O)(=O)c2ccccc2)CCCN(C(=O)Nc2ccc3c(c2)OCCO3)CCN1	-7%
Cc1cnc(CC2CCN(C(=O)NC(C)C)C2)n1C1CC1 (stereo unspecified)	-1%
Cc1ccc(CN2CC(Oc3ccccc3C(=O)NC3CC3)C2)o1	-3%
CC(=O)N1CCC([C@@H]2CN(C(=O)c3ccc(C#N)cc3)C[C@H]2CO)CC1	0%
C=CCOc1cccc(-c2nnc(CCC(=O)NCCCOC)c(=O)[nH]2)c1	-18%
Cc1ccc(CNC(=O)N2CCC(OC3CCN(S(C)(=O)=O)CC3)CC2)cc1	0%
CN(C)CCOCC1(C)COc2ccc(C(=O)Nc3ccc4[nH]ccc4c3)cc2N1 (stereo unspecified)	2%[70.6 µM]
CS(=O)(=O)N[C@@H]1[C@@H](NC(=O)CCn2nnc3ccccc32)[C@H]2CCO[C@H]21	-4%
CCCN1C(=O)C(CC(=O)N2CCCC(C)C2)Sc2ncccc21 (stereo unspecified)	-12%
O=C(Cn1cccc1-c1nc(-c2ccc(F)cc2)no1)Nc1ccccc1F	-1%
Cc1cccc(OCCc2noc(C3CCCN(Cc4ccccc4C#N)C3)n2)c1 (stereo unspecified)	-23%
CCc1ccccc1NC(=O)Cn1c(-c2cccc(Cl)c2)nc(C)c(CCO)c1=O	-11%
COc1ccc(C(=O)N2CCN(C(=O)c3nnn4c3COC(c3ccc(C)cc3)C4)CC2)cc1F (stereo unspecified)	-14%
COC(=O)[C@@H]1C[C@H](NC(=O)c2cccc(NC(=O)c3ccco3)c2C)CN1C	1%
Cc1cnc(C(=O)N2CCCC2c2nc(CCOCC3CCCC3)no2)cn1 (stereo unspecified)	?
O=C(COc1cccc(-n2cnnc2)c1)NC1CCCc2c1[nH]c1ccccc21 (stereo unspecified)	0%
O=C(NC[C@H]1OC[C@@H](NCc2cccs2)[C@@H]1O)c1cccs1	4%[70.6 µM]
COCCn1ncc(N2CCC(NC(=O)C(C)(C)C)CC2)cc1=O	5%
COCCOC1CCOC2(CCN(C(=O)c3ccc(C)nc3)CC2)C1 (stereo unspecified)	24%
COCCNC(=O)c1ccc(CC2CCN(C(=O)CCc3c(C)nn(C)c3C)CC2)cc1	-22%
O=C(CCCc1c[nH]c2ccccc12)N[C@@H]1CCOC[C@H]1OCC1CC1	0%
Cn1cc(CN2C[C@@H](F)[C@@H](OCc3nc4ncccc4[nH]3)C2)c2ccccc21	-4%[70.6 µM]
Cc1noc(C)c1S(=O)(=O)N1CCC2(CC1)C(=O)NN=C2C1CC1	2%
Fc1ccccc1CN1CCCN(Cc2cn(-c3ccccc3)nn2)CC1	-2%
COCCN1CCCCCC(O)c2cc(C(=O)N3CCN(c4ccccc4)CC3)ccc21 (stereo unspecified)	-13%

# (listing goes on)
Molecule	hNpr1 antagonist
N[C@H]1c2ccccc2C[C@@H]1NC(=O)COc1ccc(Cl)cc1Cl	-12%
F[C@@H]1CN(Cc2nccs2)C[C@@H]1OCc1nc2ccccc2[nH]1	6%[70.6 µM]
Cn1ccc(C(=O)N2CC(CNc3ccccc3)C3(C2)CN(c2ccccc2)C3)n1 (stereo unspecified)	?
COc1ccc(C(=O)N2C[C@@H]3OCC(=O)N(Cc4ccc(OC(F)(F)F)cc4)[C@@H]3C2)cc1	-10%
CN(C)c1ccc2ncc(Nc3ccccc3)n2n1	-19%[70.6 µM]
O=C1NC2(CCCN(Cc3ccc(OC(F)(F)F)cc3)C2)COc2ccccc21 (stereo unspecified)	-7%
Cc1cnc(CN(C)C(=O)CC(c2ccccc2)c2ccc(Cl)cc2)[nH]1 (stereo unspecified)	?
COc1cccc(CNC(=O)N2c3ccccc3CC2c2nc(C(C)C)no2)c1 (stereo unspecified)	3%
O=C(NCC1CCOCC1)NC1CCCC1	-2%
CN(Cc1ccccc1)Cc1cc(C[C@H]2CNCC[C@H]2CC(=O)NC2CCCCC2)no1	-3%
Cn1cc(CN[C@H]2[C@H](O)[C@H](O)C[C@@H]2c2cccnc2)c2ccccc21	1%[70.6 µM]
O=C(NC1CCCCC1)[C@@H]1C[C@@H](O)CN1C1CCN(C(=O)CN2CCCC2=O)CC1	-6%

# Sorted by length of the SMILES (highest first): some entries from above
Molecule	hNpr1 antagonist
O=C(NC1CCCCC1)[C@@H]1C[C@@H](O)CN1C1CCN(C(=O)CN2CCCC2=O)CC1	-6%
Cn1cc(CN[C@H]2[C@H](O)[C@H](O)C[C@@H]2c2cccnc2)c2ccccc21	1%[70.6 µM]
CN(Cc1ccccc1)Cc1cc(C[C@H]2CNCC[C@H]2CC(=O)NC2CCCCC2)no1	-3%
F[C@@H]1CN(Cc2nccs2)C[C@@H]1OCc1nc2ccccc2[nH]1	6%[70.6 µM]
N[C@H]1c2ccccc2C[C@@H]1NC(=O)COc1ccc(Cl)cc1Cl	-12%

# Next part:
Molecule	hNpr1 antagonist
CC(=O)N1CCC(C2CCN(S(=O)(=O)c3cccc(Cl)c3)C2)CC1 (stereo unspecified)	-1%
CCN(C1CCOCC1)C1CN(C(=O)C2CCOC2)C1 (stereo unspecified)	4%
O=C(NC1CCN(C(=O)N2CC3CC(C2)[C@H]2CCCC(=O)N2C3)CC1)c1n[nH]c2ccccc12 (stereo partly specified)	1%
COc1ccc2nc3n(c2c1)[C@@H](CNC(C)C)COC3	1%[70.6 µM]
O[C@]12CCNC[C@H]1CN(Cc1cccc(-c3ccccc3)c1)CC2	-4%
CN(C)Cc1nnc(C2CC(NC(=O)c3cn4cccnc4n3)C2)n1C (stereo unspecified)	9%
Cc1ccc(-c2ccc3nnc(CNC(=O)c4cccn4C)n3n2)cc1C	0%
Cc1nc(-c2cccc(Cl)c2)n(CC(=O)Nc2ccc(C(F)(F)F)cc2)c(=O)c1CCO	-22%
COc1ccc(C(=O)N2CCn3c(nnc3-c3ccccc3)C2)cc1	4%
OC1CC(c2cc(N3CCC(CCn4cccn4)CC3)ncn2)C1 (stereo unspecified)	7.9µM*
